Source: PubChem (Johns Hopkins Ion Channel Center)
KCNQ2 block: KCNQ2 channel blockers in CHO-K1 cells – cell-based, FluxOR thallium flux, B-score, primary screen (AID 2156); 20 min; active compounds read low; only compounds with negative scores are shown here; some inactives read as strong as hits; B-score at 10 µM; 310,000 compounds, 1.1% hits; O88943;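 active = fluorescence ratio B-score at most minus 3 library SDs, with starting brightness B-score within 2 library SDs, cut at about -5.5 in these data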
Target sequence (O88943 whole entry, looked up): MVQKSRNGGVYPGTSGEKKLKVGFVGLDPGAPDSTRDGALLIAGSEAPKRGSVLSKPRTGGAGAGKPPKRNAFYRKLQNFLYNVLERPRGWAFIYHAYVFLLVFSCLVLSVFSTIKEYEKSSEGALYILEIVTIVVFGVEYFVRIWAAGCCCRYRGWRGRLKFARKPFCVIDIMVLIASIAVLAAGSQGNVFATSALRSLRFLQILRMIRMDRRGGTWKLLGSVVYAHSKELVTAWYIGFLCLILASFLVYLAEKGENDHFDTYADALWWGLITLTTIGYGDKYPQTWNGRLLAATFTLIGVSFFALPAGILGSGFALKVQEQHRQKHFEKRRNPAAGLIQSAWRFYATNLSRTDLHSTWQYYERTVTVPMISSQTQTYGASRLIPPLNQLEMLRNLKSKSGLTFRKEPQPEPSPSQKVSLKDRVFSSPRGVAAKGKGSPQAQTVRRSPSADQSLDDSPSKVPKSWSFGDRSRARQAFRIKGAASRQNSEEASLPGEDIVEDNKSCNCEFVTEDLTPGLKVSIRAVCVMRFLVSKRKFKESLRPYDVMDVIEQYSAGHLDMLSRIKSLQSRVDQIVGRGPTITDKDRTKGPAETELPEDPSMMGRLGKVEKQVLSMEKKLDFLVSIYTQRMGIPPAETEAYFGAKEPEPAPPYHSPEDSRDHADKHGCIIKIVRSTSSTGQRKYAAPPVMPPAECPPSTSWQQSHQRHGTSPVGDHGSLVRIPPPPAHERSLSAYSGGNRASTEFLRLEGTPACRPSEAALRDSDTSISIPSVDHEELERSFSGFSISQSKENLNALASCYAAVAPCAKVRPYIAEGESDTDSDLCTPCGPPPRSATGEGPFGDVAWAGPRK
KCNQ2 block baseline: also measured in KCNQ2 block; calls as there; B-score; measured here: initial fluorescence intensity artifact check;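 brightness before thallium and not channel activity; 0 = typical well and far values either way flag optical interference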
* marks the source's active call; other numbers are inactive results; i = inactive. Some of the compounds tested; the hit share may differ from the screen's.

SMILES	KCNQ2 block	KCNQ2 block baseline
Cc1ccc2nc(NC(=O)CCCc3nc4ccccc4s3)sc2c1	i	0.05
CC(=O)Nc1cccc(Nc2nc(-c3ccccc3)nc3ccccc23)c1	i	0.31
CCC(=O)N1CCN(c2ccc(NC(=O)COc3ccc(CC)cc3)cc2)CC1	i	1.28
O=C(Cc1cccs1)OCC(=O)c1ccco1	i	0.06
CC1CCN(c2ccc([N+](=O)[O-])cc2C(N)=O)CC1	i	0.86
CC(C)(C)OC(=O)N1CCC(CC2CC(c3ccc(Cl)cc3)=NO2)(C(=O)NCC2CCCCC2)CC1 (stereo not given)	i	0.09
NC(=O)COc1ncnc2scc(-c3ccc(F)cc3)c12	i	2.45
CN(Cc1cccnc1)C(=O)CCCc1c[nH]c2ccccc12	i	-1.32
CCOc1ccc(OCc2ccc(C(=O)NC(C)(C)C)o2)cc1	i	-2.12
C=CCN1C(=O)C(Cc2ccc(Br)cc2)S/C1=N\N=C\c1ccco1 (stereo not given)	i	3.29
CC(C)c1cc(C(=O)N2CCCC(N3CCN(c4ccccc4F)CC3)C2)nc(N)n1 (stereo not given)	i	0.06
CCOCCn1c(SCC)nc2c1c(=O)[nH]c(=O)n2C	i	2.75
COc1ccc(S(=O)(=O)NC(C)C(=O)Nc2ccccc2F)cc1 (stereo not given)	i	-0.01
Cc1ccc(S(=O)(=O)c2cccc(S(=O)(=O)N3CCCC3)c2)cc1S(=O)(=O)N1CCCC1	i	1.05
Oc1oc(-c2ccccc2)nc1C=NCc1ccccc1	i	0.04
O=C1CC(SCc2nc3ccccc3[nH]2)C(=O)N1c1cccc(Cl)c1 (stereo not given)	i	-0.69
Cc1ccc(S(=O)(=O)N(CC(=O)Nc2cccc([N+](=O)[O-])c2)C2CCCCC2)cc1	i	-0.57
Cc1cc(NC(=O)CSc2nnc(NC(=O)C3CC(=O)N(c4ccccc4)C3)s2)no1 (stereo not given)	i	1.15
O=C(CCn1cnnn1)Nc1ccc(F)cc1	i	0.7
Cc1ccc(C)c(NC(=S)NNc2ccc(F)cc2F)c1	i	0.54
C=CCN(C(=O)c1ccc2snnc2c1)c1ccccc1	i	2.13
Cc1sc(NC(=O)c2oc3ccccc3c2C)c(C#N)c1C	i	0.08
Cc1ccc(Cl)c2c1NC(=O)C2(O)CC(=O)c1ccccc1O (stereo not given)	i	-0.7
CCOC(=O)c1c(-c2cccs2)csc1NC(=O)CN(CC)CC	-9.86*	1.25*
Cc1ccc(-c2nn(C)c(=O)c3ccccc23)cc1S(=O)(=O)N1CCCC1	i	-0.41
CCC(Oc1cc(Cl)ccc1Cl)C(=O)NNC(=O)CCC(=O)O (stereo not given)	i	0.13
O=C(CS(=O)c1cccc(C(F)(F)F)c1)Nc1ccccc1Cl (stereo not given)	i	0.79
COc1cc(/C=N/N(C)C)ccc1OC(=O)c1cccs1	i	-1.62
Cc1nc(N/N=C/c2ccc(Br)cc2)cc(N2CCOCC2)n1	i	0.18
O=C(NCc1cccc(F)c1)C1CCC(=O)N(CCCN2CCOCC2)C1 (stereo not given)	i	-0.02

Taken from the results shown, two compounds:
SMILES	KCNQ2 block	KCNQ2 block baseline
Cc1ccc2nc(NC(=O)CCCc3nc4ccccc4s3)sc2c1	i	0.05
CC(=O)Nc1cccc(Nc2nc(-c3ccccc3)nc3ccccc23)c1	i	0.31

Profiles, looked up by structure.
O=C1CC(SCc2nc3ccccc3[nH]2)C(=O)N1c1cccc(Cl)c1 (stereo not given) as listed: KCNQ2 block = i; KCNQ2 block baseline = -0.69
C=CCN(C(=O)c1ccc2snnc2c1)c1ccccc1 as listed: KCNQ2 block = i; KCNQ2 block baseline = 2.13
Cc1ccc2nc(NC(=O)CCCc3nc4ccccc4s3)sc2c1 as listed: KCNQ2 block = i; KCNQ2 block baseline = 0.05

(further entries)
SMILES	KCNQ2 block	KCNQ2 block baseline
CN1CCN(CCOCCOc2ccc(Br)cc2Cl)CC1	i	3.27
Cc1nc2ccccc2cc1C(=O)N/N=C/c1ccco1	i	-0.9
O=c1c2ccccc2nc2c3ccccc3c(NCc3cccnc3)nn12	i	2.08
COc1ccc2[nH]c(C)c(CCNC(=S)Nc3ccc(F)cc3)c2c1	i	0.27
O=C(Nc1cccc(-c2nc3cccnc3s2)c1)c1cccnc1Cl	i	-0.93
Cc1ccccc1NC(=O)CSc1cn[nH]n1	i	2.79
CN(CCNC(=O)Cn1c(=O)sc2ccccc21)Cc1ccccc1	i	0.77
Cc1ccccc1NC(=O)N1CCCC1C(=O)NCc1ccccc1 (stereo not given)	i	1.67
CN(C)S(=O)(=O)c1ccc(NC(=S)NC(=O)c2cccs2)cc1	i	1.31
O=C(c1ccco1)N1CCN(c2c([N+](=O)[O-])nn(-c3ccc(Cl)cc3)[n+]2[O-])CC1	i	0.31
CCOC(=O)/C=C1\Nc2ccccc2SC1=O	i	0.69
COc1ccc(CCNC(=O)CNC(=O)c2ccco2)cc1	i	2.58
Cc1cc(NC(=O)CSc2nc(-c3ccco3)cc(C(F)(F)F)n2)n(-c2ccccc2)n1	i	-0.9
COc1cc(/C=N\NC(=O)c2ccc(C)nc2)ccc1OC(=O)c1ccco1	i	0.01
COc1cc(NC(=S)N2CCN(S(C)(=O)=O)CC2)cc(OC)c1	i	-1.81
CCOc1cc(C2NC(=O)NC(C)=C2C(=O)OC(C)CC)cc(Br)c1O (stereo not given)	i	1.12
CC1(C)OC(=O)C(=CNc2ncccn2)C(=O)O1	i	0.05
COn1c(SCc2ccccc2)nc2ccccc2c1=O	i	0.64
Cc1cccc(N2C(=O)CC(n3ccnc3)C2=O)c1C (stereo not given)	i	1.21
O=C(Nc1cccc(S(=O)(=O)N2CCOCC2)c1)C(c1ccccc1)N1CCCCC1 (stereo not given)	i	1.34
Cc1cc(C(=O)Nc2nc(-c3ccccn3)cs2)ccc1[N+](=O)[O-]	i	-0.4
O=C(CCn1c(=S)[nH]c2ccccc2c1=O)N1CCOCC1	i	-0.03
S=C(NCc1ccc(Cl)cc1)NN1CCOCC1	i	-0.41
COCCN=C1NN=C(c2cc(C)n(CC3CCCO3)c2C)CS1 (stereo not given)	i	-1.22
COc1ccc(C(CC(=O)O)N2C(=O)CCC2=O)cc1 (stereo not given)	i	2.08
Cc1cccc2sc(NC(=O)C3CSC4(C)CCC(=O)N34)nc12 (stereo not given)	i	-1.94
COc1cccc(CNc2ncc(-c3ccccc3)n2C)c1	i	1.4
CCCCNC(=O)Cn1cnc2c(cnn2-c2ccc(C)c(C)c2)c1=O	i	-0.57
Nc1nc(Nc2ccccc2)nc(NCc2ccco2)c1[N+](=O)[O-]	i	-0.67
CCc1cc2c(=O)[nH]c(N3CCCC3)nc2s1	i	0.82
O=C(Nc1ccc(Cl)cc1)N1CCc2ccccc2C1	i	0.21
O=C(O)CCNc1cc2ccccc2cc1C(=O)O	i	3.41
O=C(OCc1ccc(Cl)cc1)c1cccnc1Cl	i	0.19
NC(=O)COC(=O)CSc1cccc2cccc(Cl)c12	i	0.01
CCCCC(=O)Nc1ccc(S(=O)(=O)N2CCCCC2c2cccnc2)cc1 (stereo not given)	i	-0.01
CC(C)N(Cc1ccccc1)C(=O)CC(=O)N(Cc1ccccc1)C(C)C	i	-0.62
Cc1onc(-c2ccccc2Cl)c1C(=O)Oc1cccc2cccnc12	i	1.3
O=C(Nc1cc(C(F)(F)F)ccc1N1CCOCC1)c1cncc(Br)c1	i	0.34
O=C(CN(C(=O)CNC(=O)c1ccco1)c1ccc(F)c(Cl)c1)NC1CCCCC1	i	-0.2
COC(=O)c1ccccc1NC(=O)CSc1nnc(COc2cccc(OC)c2)n1C	i	0.01
COc1cccc(OCC(O)CN2CCC(CN3C(=O)c4cccc5cccc(c45)C3=O)CC2)c1 (stereo not given)	i	-0.17
O=C(CN1CCN(Cc2ccc(F)cc2)C1=O)NC1CCCC1	i	-1.08
CCN(CC)Cc1c(C(=O)N/N=C/c2ccc(C)o2)nnn1-c1nonc1N	i	-1.14
Cc1cc(C)c(S(=O)(=O)N2CCOCC2)cc1C	i	-0.49
Cn1c(N)c(C(=O)COC(=O)c2ccccc2NCc2ccco2)c(=O)n(C)c1=O	i	-0.6
CCOc1cc2[nH]c(=O)n(CCCN3CCCC3=O)c(=O)c2cc1OCC	i	-0.63
Cc1cccc(C(O)(C(=O)NNc2ccc3ccccc3n2)c2cccc(C)c2)c1	i	1.23
COc1cc(-c2cc(N)n(S(=O)(=O)c3ccccc3)n2)cc(OC)c1OC	i	-0.91
COC(=O)c1c(C)oc2ccc(N(C(=O)c3ccncc3)S(=O)(=O)c3ccccc3)cc12	i	-1.02
COc1ccc(CNC(=O)COC(=O)C2=COCCO2)cc1	i	-0.95
COc1ccc(CN2CCN(Cc3cccn3-c3ncccn3)CC2CCO)c(C)c1C (stereo not given)	i	-0.08
C=CCn1c(COc2ccc(CC)cc2)nnc1SCC(=O)NC1CCS(=O)(=O)C1 (stereo not given)	i	-1.05
O=C(c1cc(Br)ccc1Cl)N1CCCC1	i	0.27
Cc1nc(Cc2nnc(SCc3nc(N)nc(Nc4ccccc4C)n3)o2)cs1	i	0.64
C=CCNc1nc(NC(C)(C)CO)nc(OCC)n1	i	-0.28
CCCCC(CC)CNC(=O)C(Cc1ccccc1)NS(=O)(=O)c1ccc2c(c1)CCC(=O)N2 (stereo not given)	i	0.05
Cc1cc(C)n2nc(SCC(=O)N(CC(C)C)c3c(N)n(CC(C)C)c(=O)[nH]c3=O)nc2n1	i	0.2
CCc1ccc(CN2CCN(C(=O)c3ccco3)CC2)cc1	i	-1.31
O=C(c1ccco1)N(Cc1cccc([N+](=O)[O-])c1)c1ccc(Br)cc1	i	0.96
Cc1ccccc1N1C(=O)c2ccccc2NC1c1ccncc1 (stereo not given)	i	-0.01

Three of these compounds, reformatted.
KCNQ2 block | KCNQ2 block baseline | Structure
i | 0.01 | COC(=O)c1ccccc1NC(=O)CSc1nnc(COc2cccc(OC)c2)n1C
i | -0.17 | COc1cccc(OCC(O)CN2CCC(CN3C(=O)c4cccc5cccc(c45)C3=O)CC2)c1 (stereo not given)
i | -1.08 | O=C(CN1CCN(Cc2ccc(F)cc2)C1=O)NC1CCCC1

(further entries)
SMILES	KCNQ2 block	KCNQ2 block baseline
O=C(Nc1ccc(S(=O)(=O)NCc2ccccc2)cc1)c1ccccc1[N+](=O)[O-]	i	2.51
CCCC1C(C#N)=C(N)Oc2cc(C)n(C)c(=O)c21 (stereo not given)	i	-0.15
COc1cccc(/C=N/NC(=O)CSc2nnc(C)n2-c2ccccc2)c1OC	i	0.06
CN(C(=O)CCN1C(=O)C2C3C=CC(C3)C2C1=O)c1ccccc1 (stereo not given)	i	-0.31
Cc1ccc(S(=O)(=O)Nc2ccc(O)c(Sc3ncn[nH]3)c2)cc1	i	0.01
Cc1ccc(NS(=O)(=O)c2cccs2)nc1	i	0.35
O=Nc1ccc(O)c2ncccc12	i	3.66
CC(C)N(C1=N/C(=C\c2ccco2)C(=O)N1c1ccccc1)C(C)C	i	-0.16
O=C(c1cc2ccccc2o1)N1CCN(S(=O)(=O)/C=C/c2ccccc2)CC1	i	0.3
CCn1c(CNC(=O)c2ccco2)nnc1SCC(=O)Nc1ccc(Br)cc1F	i	-0.86
CCOC(=O)N1CCN(C(=O)c2ccc3c(=O)n(CC4CCCO4)c(=S)[nH]c3c2)CC1 (stereo not given)	i	0.28
O=[N+]([O-])c1ccc(S(=O)(=O)N/N=C/c2ccc3c(c2)OCO3)cc1	i	-0.5
Cc1ccc(-c2noc(CCC(=O)NCc3ccc4c(c3)OCO4)n2)cc1	i	2.98
CC(C)=CCN1CCN(Cc2cc(F)ccc2-n2nc(C)cc2C)CC1CCO (stereo not given)	i	1.9
CN(C)c1cccc(C(=O)Nc2nnc(Cc3ccccc3)s2)c1	i	0.05
CSc1ncccc1C(=O)Nc1ccc(S(=O)(=O)Nc2nccs2)cc1	i	-0.69
CC(NC(=O)COC(=O)COc1cccc2c1OC(C)(C)C2)c1ccccc1 (stereo not given)	i	1.15
N#C/C(=N\O)c1nc2ccccc2s1	i	-0.21
CC1CC(C)CN(CCOc2cccc3ccccc23)C1 (stereo not given)	i	-0.8
Cc1cc(C)n(-c2nc3ccccc3nc2N2CCCCCC2)n1	i	-1.93
O=C(CN1CCC(NC(=O)c2ccccc2Cl)CC1)NCc1ccco1	i	0.03
CCCCCNC(=O)c1ccc2c(=O)n(CCOC)c(=O)[nH]c2c1	i	0.99
CC(=O)c1cccc(NC(=O)NC2CC(=O)N(c3ccc4c(c3)OCCO4)C2)c1 (stereo not given)	i	-1.19
Cc1cccc(NC(=O)c2sccc2-n2cccc2)c1C	i	0.89
Cc1ccc(NC(=O)N2CCC(NC(=O)c3cccc(C)c3)CC2)cc1	i	1.52
CC1CCCN(CC(=O)Nc2ccc(S(=O)(=O)N3CCCCCC3)cc2)C1 (stereo not given)	i	2.04
O=C(c1cccnc1)N1c2ccccc2Sc2ccccc21	i	0.03
Cc1cc(C)n(-c2nc3ccccc3c3nc(C)nn23)n1	i	-0.01
CC(C)Cc1ccc(CN2CCCC(NC(=O)CCN3CCOCC3)C2)cc1 (stereo not given)	i	-0.26
COc1ccc(C(=O)SC2=NCCS2)cc1	i	1.23
CN(C)c1ccc2c(c1)OC(N)=C(C#N)C2c1cccc(F)c1 (stereo not given)	i	10
CN1CCc2nc(SCC(=O)Nc3ccc(F)cc3)c(C#N)cc2C1	i	-0.98
